StopGo reporter – FMDV 2A StopGo reporter, luciferase signal; human cells with a luciferase reporter of 2A StopGo recoding; control for the full effect not named in the record; Potency, µM (series often up to 57.9 µM), for inactives: at the top dose signal change, negative = less light; hit rate 1.2% among 410,000; AID 1159524; active = well fitted falling curve with a large enough effect; inconclusive = small, poorly fitted or top-dose-only effect; inactive = no such curve, though single readings can be large or run the other way; tested in HEK293T cells; also: % is scaled to controls: 0 for no effect and ±100 for the full control effect; nearly all actives have a fitted effect of over 45% in size; luciferase light after 4 h
NS1 inh – inhibitors of influenza NS1 protein function. S. cerevisiae slowed by influenza A NS1, growth recovery by OD600. Potency, µM (highest dose often 46.1 µM), for the others: at the top dose activity, positive = more growth. hit rate 0.4% among 270,000. AID 2326; active means well fitted rising curve with a large enough effect; inconclusive means small, poorly fitted or top-dose-only effect; inactive means no such curve, though single readings can be large or run the other way; also: nearly all actives have a fitted effect of over 50% in size
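Compounds were scored for reversing the slow growth caused by influenza A NS1 in S. cerevisiae, measured by optical density at 600 nm. Assay medium contained 2% galactose at pH 6.0; NS1-free yeast of the same strain were the positive control.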
MARV entry inh – Marburg virus entry inhibition. Marburg virus pseudotyped entry inhibition, cell reporter; control for the full effect not named in the record; about a third of the inactives were read at about 46 µM. Potency, µM (highest dose often 37.8 µM), inactives show at the highest dose activity change, negative = inhibition, hits mostly inhibitors. hit rate 1.8% among 300,000; active = well fitted inhibition curve with a large enough effect; inconclusive = small, poorly fitted or top-dose-only effect, or effect the other way; inactive = flat fitted curve, though single readings scatter; tested in HEK293 cells; about a fifth of its hits are not listed in these tables; also: % is scaled to controls: 0 for no effect and ±100 for the full control effect; luciferase read-out
Cruzain inh noDet – cruzain (T. cruzi) inhibition without detergent | P25779 | Potency, µM, without a hit: max response, negative = inhibition, usual class: inhibitors | purified cruzain, Z-FR-AMC fluorescence, no detergent | hit rate 2.3% among 200,000;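 also: plate controls were enzyme without inhibitor for no effect and buffer without enzyme for full effect; nearly all actives have a fitted effect of over 40% in size; top concentration of the series not given in the record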
Target sequence (P25779 123-467 limits assumed): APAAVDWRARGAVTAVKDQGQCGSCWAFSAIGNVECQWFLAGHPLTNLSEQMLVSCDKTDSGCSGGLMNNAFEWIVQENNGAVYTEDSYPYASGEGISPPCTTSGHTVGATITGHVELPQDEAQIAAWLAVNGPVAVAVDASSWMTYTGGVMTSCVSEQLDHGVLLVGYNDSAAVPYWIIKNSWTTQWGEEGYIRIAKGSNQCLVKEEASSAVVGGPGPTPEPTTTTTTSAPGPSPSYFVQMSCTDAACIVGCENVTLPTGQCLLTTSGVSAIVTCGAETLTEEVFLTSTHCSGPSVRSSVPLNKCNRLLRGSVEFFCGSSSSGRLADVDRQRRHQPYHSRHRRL
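Detergent-free condition (0.00005% Triton X-100) in acetate buffer pH 5.5 with DTT. 1.5 nM enzyme and compound were pre-mixed 15 min, then 2 uM Z-FR-AMC substrate added; reaction progress from fluorescence change between first and third reads (60 s).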
Cruzain inh Det – cruzain (T. cruzi) inhibition with detergent; Potency, µM, inactives show max response, negative = inhibition, actives largely listed as inhibitors; hit rate 0.43% among 200,000; P25779; AID 1478; purified cruzain, Z-FR-AMC fluorescence, 0.01% Triton;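 also: plate controls were neutral wells for no effect and buffer without enzyme for full effect; nearly all actives have a fitted effect of over 40% in size; top concentration of the series not given in the record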
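Z-FR-AMC hydrolysis (2 uM substrate) by cruzain (1.5 nM) monitored kinetically at ex 360/em 450 nm after 15 min room-temperature compound exposure; 0.01% Triton X-100, pH 5.5, 5 mM DTT.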
RE007 growth inh – less growth of the S. pombe RE007 Vpr strain. S. pombe RE007 Vpr strain, BacTiter-Glo ATP luminescence, 24 h; control for the full effect not named in the record. Potency, µM (top dose mostly 92.2 µM), for inactives: at the highest dose activity change, negative = less growth. hit rate 0.21% among 360,000. AID 651644; active = well fitted falling curve with a large enough effect; inconclusive = small, poorly fitted or top-dose-only effect; inactive = no such curve, though single readings can be large or run the other way;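 also: % is scaled to controls: 0 for no effect and ±100 for the full control effect; nearly all actives have a fitted effect of over 50% in size; the assay follows cell death caused by Vpr and the record does not say whether a fall means rescue or toxicity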
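Fission yeast RE007 carrying one integrated HIV-1 vpr copy, seeded at OD 0.01 in PMG+AL medium with 23 nL pinned compound. Grown 24 h at 30 degrees; viability read by BacTiter-Glo luminescence after 5 min.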
Lassa entry inh – Lassa virus entry inhibition; Lassa virus pseudotype entry inhibition, cell reporter; control for the full effect not named in the record; Potency, µM (series often up to 37.9 µM), without a hit: at the top dose activity change, negative = inhibition, most hits filed as inhibitors; hit rate 1.2% among 300,000; AID 540256; active means well fitted inhibition curve with a large enough effect; inconclusive means small, poorly fitted or top-dose-only effect, or effect the other way; inactive means flat fitted curve, though single readings scatter; tested in HEK293 cells; also: % is scaled to controls: 0 for no effect and ±100 for the full control effect; nearly all actives have a fitted effect of over 50% in size; luciferase read-out
SARS PLP yeast – blocks SARS-CoV papain-like protease in a yeast assay; Potency, µM (series often up to 32.9 µM), for inactives: at the highest dose activity, positive = growth rescue; S. cerevisiae expressing SARS-CoV PLpro, growth rescue; control for the full effect not named in the record; hit rate 0.19% among 330,000; active means well fitted rising curve with a large enough effect; inconclusive means small, poorly fitted or top-dose-only effect; inactive means no such curve, though single readings can be large or run the other way; also: 0% is about no effect; nearly all actives have a fitted effect of over 55% in size; growth read by luminescence after 48 h
* marks the source's active call; other numbers are inactive results; ? = inconclusive; . = no result given; ! = not confirmed by another sample; [ ] = dose if it differs, or a comment. Unless noted, calls follow the shape of the dose curve; as a rule, active = well fitted curve in the direction sought with a large enough effect; inconclusive = small, poorly fitted or top-dose-only effect, or another doubt; inactive = no such curve, though single readings can be large; an effect the other way counts as inactive or inconclusive. Potency is read from the fitted curve at half-maximal effect.

SMILES | StopGo reporter | NS1 inh | MARV entry inh | Cruzain inh noDet | Cruzain inh Det | RE007 growth inh | Lassa entry inh | SARS PLP yeast
Cc1oc2c(c(C)cc3oc(=O)c(CC(=O)NCCc4ccc(Cl)cc4)c(C)c32)c1C | -9.9% | . | 7.4%[46.1 µM] | 1.2% | 2.4% | . | 8.9%[46.1 µM] | .
Cc1ccc(N2CC(NC(=O)CCCc3ccccc3)CC2=O)cc1 (centres undefined) | -12.1% | . | . | 5.8% | 0.6% | . | 9.1%[46.1 µM] | .
Cc1ccc(C2=NN(C(=O)CSc3nc4ncc(Cl)cc4[nH]3)C(c3ccco3)C2)cc1 (centres undefined) | -14.5% | . | -3.3%[46.1 µM] | . | . | 13.4% | 5.8% | -14.2%
CCCCn1cnc2c([nH]c3ccccc32)c1=O | 40.5%[activator] | -17.4% | -0.1% | -5.9% | 0.7% | 5.8% | ? | 2.6%
Cc1cc(=O)n(C)c(=O)n1CCCCOc1cccc([N+](=O)[O-])c1 | -24.6% | -2.4% | -6.0% | 0.7% | 1.9% | 6.1% | -8.6% | 3.6%
O=c1[nH]c(=O)n(Cc2ccccc2)c2nc(-c3ccco3)cc(C(F)(F)F)c12 | -9.4% | -4.3% | -20.2% | -8.4% | -3.2% | 11.9% | ? | -1.5%
COc1cc(OC)cc(C(=O)NC(=S)Nc2cc3oc4ccccc4c3cc2OC)c1 | -17.4% | -0.3% | ? | 3.98µM* | -4.6% | 15.2% | ? | 12.0%
COc1ccc(C(O)(C2CCCCC2)C(CN2CCCC2)c2ccccc2)cc1 (centres undefined) | -15.5% | -0.6% | 8.91µM* | . | . | -0.2% | ? | 0.9%
Cc1ccc(NC2=NCC(=O)N2c2ccc3c(c2)OCCO3)c(C)c1 | 21.6% | -0.6% | 17.2%[46.1 µM] | 1.5% | 0.1% | -11.6% | 4.6% | ?
Cc1ccc(C(=O)Nc2ccccc2C(=O)N2CCN(c3ccccc3)CC2)cc1 | -7.2% | -0.1% | -24.3%[46.1 µM] | . | . | 4.6% | -17.4%[46.1 µM] | 1.8%
Cc1cc(C)c(C)c(S(=O)(=O)NCCCN2CCOCC2)c1C | 38.6%[activator] | 0.0% | 4.6%[46.1 µM] | . | . | 2.2% | 20.9% | -1.5%
NS(=O)(=O)c1cccc2cccnc12 | -20.3% | -68.3% | -5.4% | 3.4% | 1.3% | -7.9% | . | 1.3%
Cc1ccc(-c2nnn(CC(=O)N(Cc3ccc(F)cc3)C(C(=O)NC3CCCC3)c3ccncc3)n2)o1 (centres undefined) | -6.2% | -18.4% | 7.5% | ? | 0.1% | 0.3% | ? | 11.4%
CC1CN(C(=O)CCC(=O)NCc2cccc(Cl)c2)c2ccccc2S1 (centres undefined) | ? | . | -7.6%[46.1 µM] | 2.9% | -6.3% | . | . | .
Cc1nc(-c2cccc(S(=O)(=O)N3CC(C)CC(C)C3)c2)cs1 (centres undefined) | 8.8% | 6.6% | -6.9% | -6.9% | -3.8% | -0.7% | -1.0% | 2.9%
COC(=O)CCC(=O)Nc1c(C)n(C)n(-c2ccccc2)c1=O | -17.4% | -0.8% | ? | . | . | 4.0% | ? | -0.8%
COc1cccc(C2c3c(oc4cc(C)cc(C)c4c3=O)C(=O)N2CCc2ccc(OC)c(OC)c2)c1 (centres undefined) | -11.1% | . | ? | 9.4% | 0.0% | . | 0.4%[46.1 µM] | .
COc1cc(OC)c(NC(=O)CN(C)S(=O)(=O)c2ccc3c(c2)CCCC(=O)N3)cc1Cl | 0.0% | . | . | 7.2% | -2.7% | . | 4.6%[46.1 µM] | .
COc1cccc(COC(=O)c2nn(-c3ccccc3)nc2N)c1 | 25.1µM*! | -2.7% | ? | 5.6% | -0.2% | 14.8% | ? | 1.5%
O=C(c1ccc(CS(=O)Cc2ccc(Cl)cc2)o1)N1CCN(c2ccccc2F)CC1 (centres undefined) | 6.5% | 2.6% | -1.6%[46.1 µM] | . | . | -2.6% | -2.0%[46.1 µM] | -3.2%
CC12CCC3C(CC=C4CC(O)CCC43C)C1C/C(=C\c1cccc(F)c1)C2=O (centres undefined) | ? | 1.2% | ? | -13.9% | -0.2% | 22.4% | -27.6% | -1.7%
CSCCC(NC(N)=O)C(=O)Nc1cccc(C#N)c1 (centres undefined) | 4.7% | . | 26.9%[46.1 µM] | . | . | -2.0% | -11.6%[46.1 µM] | 1.1%
CCc1nnc(NC(=O)CCC(=O)N2CCN(Cc3ccc(C)cc3C)CC2)s1 | -23.6% | -15.8% | 0.5%[46.1 µM] | . | . | 10.6% | 3.8%[46.1 µM] | 0.5%
CCc1ccc(OCc2n[nH]c(=S)n2Cc2ccccc2)cc1 | -17.4% | 5.6% | 16.0%[46.1 µM] | . | . | 0.8% | ? | 1.1%
CCOc1ccccc1C1NC(=O)c2ccccc2O1 (centres undefined) | -8.5% | -7.4% | -12.5% | . | . | -3.5% | -22.5% | -4.3%
Carrying on:
SMILES | StopGo reporter | NS1 inh | MARV entry inh | Cruzain inh noDet | Cruzain inh Det | RE007 growth inh | Lassa entry inh | SARS PLP yeast
Cc1cccn2c(=O)c3cc(S(=O)(=O)c4ccccc4)c(=N)n(Cc4ccc(F)cc4)c3nc12 | 17.0% | 13.2% | 7.7%[46.1 µM] | . | . | 11.3% | 20.7%[46.1 µM] | 3.7%
O=c1c2sccc2nc(SCc2cc(=O)n3cc(Cl)ccc3n2)n1-c1ccc(F)cc1 | ? | 9.2% | 13.8% | -0.8% | -5.3% | 0.2% | 0.0% | 23.6%
COC(=O)c1cc(OC)c(OC)cc1NCC(=O)Nc1ccc(OC)c(OC)c1 | ? | 1.7% | ? | 3.0% | -1.8% | 10.9% | 6.9% | 7.9%
Cc1cc(C)nc(NS(=O)(=O)c2ccccc2)n1 | . | 1.9% | 3.1% | -7.1% | 1.5% | 13.9% | -0.2% | 13.2%
c1ccc(OCc2nc(-c3ccncc3)no2)cc1 | 49.4%[activator] | -0.3% | 1.4% | . | . | -6.6% | ? | -1.8%
COC(=O)c1ccc(NC(=O)CN2C(=O)c3cccc4cccc2c34)cc1 | -26.5% | . | -2.8%[46.1 µM] | 1.6% | 0.9% | . | -4.3%[46.1 µM] | .
O=C(Nc1ccccn1)c1ccc(S(=O)(=O)N2CCCC2)cc1 | 35.6%[activator] | . | -0.2%[46.1 µM] | . | . | 12.4% | ? | -0.8%
Cc1[nH]c(C)c(S(=O)(=O)Nc2ccc(F)cc2Cl)c1C(=O)N1CCCC1 | 15.1% | 2.4% | . | . | . | -1.1% | . | -2.7%
CCOc1cc(CNCCCN2CCOCC2)cc(Br)c1OCC(=O)Nc1cccc(C(F)(F)F)c1 | -18.8% | -1.9% | -9.6% | -26.2% | -24.3% | 11.4% | . | -5.4%
Cc1cccc(CN2C(=O)CN=C(c3ccccc3Cl)c3cc(Cl)ccc32)c1 | ? | . | . | -12.5% | -6.3% | . | 3.2%[46.1 µM] | .
CCC(C)NS(=O)(=O)c1ccc(NC(=O)c2c(-c3ccccc3)noc2C)cc1 (centres undefined) | -11.0% | -20.1% | . | -5.1% | -0.1% | 18.3% | . | -6.6%
C#Cc1ccc(CN2CCC(Oc3ccc(C(=O)NCc4ccccn4)cc3)CC2)cc1 | ? | 3.3% | -25.2% | . | . | 7.0% | 3.9% | -1.3%
Cc1nc2sc(C(c3ccc(F)cc3)N3CCN(C(=O)c4ccco4)CC3)c(O)n2n1 (centres undefined) | -16.4% | 0.7% | -13.8% | 4.1% | -2.8% | 5.4% | -21.1% | 6.9%
COc1ccc(-c2[nH]ncc2CN2CCCOc3c(cccc3OC)C2)c(OC)c1 | -9.8% | -0.4% | ? | . | . | -2.0% | ? | 0.2%
CCc1ccccc1Nc1nn2c(=O)c3ccc(C(=O)NCc4ccc(C)cc4)cc3nc2s1 | 0.0% | . | . | 8.8% | -1.6% | . | 2.1%[46.1 µM] | .
CCCn1nc2cc(C(=O)NCc3ccccc3)ccc2c1OCC | 20.9% | -4.5% | . | 1.7% | -6.6% | -10.1% | . | 1.2%
Cc1cccc(C)c1NC(=O)[C@@]1(CC(=O)O)CC(/C=C/c2ccccc2)=NO1 | -3.2% | 0.7% | 1.3%[46.1 µM] | . | . | -3.2% | -0.7%[46.1 µM] | 1.0%
CC(C)c1nnc(NC(=O)CCC(=O)NC2CCCCCC2)s1 | 3.5% | 7.0% | 20.0%[46.1 µM] | . | . | 14.6% | 8.7%[46.1 µM] | 2.0%
Cc1cccc2c(CCN)c[nH]c12 | -7.3% | . | -15.6%[46.1 µM] | . | . | 9.4% | 26.7%[46.1 µM] | 1.6%
Cc1c(NC(=O)C(C)Oc2cccc(Cl)c2)c(=O)n(-c2ccccc2)n1C (centres undefined) | -2.1% | . | -2.0% | . | . | 5.1% | 6.5% | -2.4%
O=C(NCCNC(=O)c1ccccc1)c1ccccc1 | -3.1% | -0.5% | . | . | . | -9.1% | . | 1.8%
COc1ccc(/C=C2/C(=O)N=C(N)N2C)cc1OC | 3.5% | 9.2% | 3.6% | 3.2% | -3.4% | 2.2% | ? | -3.9%
O=C(O/N=C(\c1ccccc1)c1ccccn1)c1ccc(Cl)c(Cl)c1 | 6.6% | -0.3% | 24.9% | 19.5% | -10.8% | -23.5% | 28.6% | -17.0%
O=c1oc2ccccc2c(=O)c2ccccc12 | 1.3% | . | -5.0%[46.1 µM] | . | . | -5.7% | 16.5%[46.1 µM] | .
COc1ccc2cc(C#N)c(Nc3cccc(F)c3)nc2c1 | -18.9% | . | 9.4% | . | . | 2.8% | -4.9% | -0.5%
Cn1c(=O)c2c(nc(OC3CCCC3)n2C)n(C)c1=O | -13.4% | . | -21.5% | . | . | 9.0% | 14.2% | .
CCc1ccc(-c2nc(C(N)=O)c3[nH]c(=O)n(-c4ccccc4OC)c3n2)cc1 | ? | -2.1% | . | ? | -6.2% | -11.9% | . | 2.5%
COc1ccc(NC(=O)Cn2c(=O)n(CCC(=O)NCCc3ccc(OC)c(OC)c3)c(=O)c3ccccc32)cc1Cl | -12.3% | . | -9.4%[46.1 µM] | -2.7% | -1.8% | . | 24.8%[46.1 µM] | .
Cc1csc(=S)n1-c1ccccc1 | -6.9% | 14.0% | -11.0% | -9.8% | -2.7% | 22.2% | -1.9% | 1.8%
